# Measles inh = inhibitors of measles virus growth in infected cells | AID 745 | z-score (concentration not given with the values) | infected Vero cells, GFP fluorescence, 64 h; hits give low values | hit rate 0.1% among 33,000;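 active = z-score under -3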;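 note: score is relative to mean and SD of the compound wells of a plate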
# Starred values were filed as active, the others as inactive. An excerpt, so the mix of outcomes need not match the whole.
SMILES,Measles inh
CC(NC(=O)c1cc(=O)[nH]c2ccc(Br)cc12)c1ccccc1 (centres undefined),0.21
Cn1nc(OCC(N)=O)ccc1=O,0.16
O=C(CNC(=O)Cn1cnc2ccccc2c1=O)NCC1CCCO1 (centres undefined),-0.98
CCOc1ccc(NC(=O)CSc2nccn2-c2cccc(OC)c2)cc1,0.49
Cc1ccccc1-n1c(=S)sc2c(=O)n(-c3ccccc3)c(SCC(=O)NCC3CCCO3)nc21 (centres undefined),-0.92
CN1CCN(CCCCCCC(=O)O)CC1,-0.31
N#Cc1ccccc1Cn1c(=O)n(CC2CCC(C(=O)NCc3ccccc3)CC2)c(=O)c2ccccc21 (centres undefined),-0.51
Cc1ccc(C2CC(C(F)(F)F)n3nc(C(=O)Nc4ccccc4C)cc3N2)cc1 (centres undefined),-0.73
CCC(Sc1nnc2c(n1)[nH]c1ccccc12)C(=O)Nc1ccccc1OC (centres undefined),-0.37
COc1ccc(C2NC(=O)NC(C)=C2C(=O)OC(C)C)cc1Br (centres undefined),-0.33
O=C(Nc1cc(-c2nc3ncccc3o2)ccc1Cl)c1ccc2ccccc2c1,-0.14
O=C(Cn1cnc([N+](=O)[O-])c1)Nc1cc(Oc2cccc(Cl)c2)cc([N+](=O)[O-])c1,-1.21
COc1ccccc1CNC(=O)CSc1nc2ccccc2n1S(=O)(=O)c1ccc(Cl)cc1,-0.08
CCOc1ccc(C(=O)N2CC(=O)Nc3ccc(Cl)cc3C2c2ccccc2)cc1OCC (centres undefined),-0.57
Cc1cc(NS(=O)(=O)c2ccc(NC(=O)c3ccccc3)cc2)no1,1.33

# (more compounds)
SMILES,Measles inh
Cc1ccc(C2C(=O)N(C3CCC(C)CC3)CC(=O)N2Cc2ccccc2Cl)cc1 (centres undefined),0.04
COc1ccc(C2C(C(=O)N3CCOCC3)CCC(=O)N2c2ccc(OC)cc2)cc1 (centres undefined),-1.01
Cc1ccc(Sc2c(C)nn(C(C)(C)C)c2OC(=O)Cc2ccccc2)cc1,2.37
COc1ccc(C2SCC(=O)N2CCc2ccc(OC)c(OC)c2)c(OC)c1 (centres undefined),0.51
COc1cc(C2CC(=O)c3cnc(NC(C)=O)nc3C2)cc(OC)c1OC (centres undefined),1.22
CC(=O)N1CCc2cc(S(=O)(=O)NC(CC(C)C)C(=O)Nc3nccs3)ccc21 (centres undefined),1.06
COCCCn1c(=N)c(C(=O)NCCc2ccccc2)cc2c(=O)n3ccccc3nc21,1.72
Cc1nn(C)cc1CNC(=O)C1C2CCC(O2)C1C(=O)O (centres undefined),-0.14
CC1CCN(CCCNC(=O)c2cc(-c3ccccn3)nc3ccc(S(=O)(=O)N4CCOCC4)cc23)CC1,1.33
Nc1ccc(C(=O)N2N=C(C(F)(F)F)CC2(O)c2ccc(Br)cc2)cc1 (centres undefined),-0.65
CC1CCCCN1C(=O)CSc1nnc(-c2ccccc2F)o1 (centres undefined),0.42
CCN(CC)CCn1c(=S)[nH]c2cc(C(=O)OC)ccc2c1=O,0.71
CC(C)c1ccc(NC(=O)C2C3C=CC4(O3)C2C(=O)N(Cc2ccc(Cl)cc2)C4C(=O)NC2CCCCC2C)cc1 (centres undefined),0.51
Cc1ccc(N2C(=O)CC(Sc3nc4c(cc3C#N)CCC4)C2=O)cc1 (centres undefined),0.55
COc1ccc(C2CC(=O)C3=C(C2)Nc2ccccc2N(C(=O)C(F)(F)F)C3c2ccc(F)cc2)cc1 (centres undefined),0.3

# Next compounds
SMILES,Measles inh
CCCC(=O)Nc1sc2c(c1C#N)CCC(C)C2 (centres undefined),-1.31
CC1=NN(C(=O)c2ccc(O)cc2)C(O)(c2ccc(Cl)cc2)C1 (centres undefined),-0.79
CCN(CC)c1nc2ccccc2c(N)c1-c1ccccc1,1.32
Cc1cccc(C)c1Nc1ncnc(N)c1[N+](=O)[O-],-1.6
CS(=O)(=O)N1Cc2ccccc2CC1C(=O)Nc1ccccc1C(N)=O (centres undefined),-0.43
CSc1nc2ccc(N=Cc3cccc([N+](=O)[O-])c3)cc2s1,-0.22
O=C(Nc1ccc2c(c1)CCC2)c1cc(S(=O)(=O)N2CCCCC2)ccc1Cl,-0.08
CCOC(=O)c1ccc(Nc2ncc([N+](=O)[O-])cc2[N+](=O)[O-])cc1,-1.52
Cc1[nH]c2ccccc2c1CCn1c2c(c(=O)[nH]c1=O)C(C(F)(F)F)(C(F)(F)F)N=C(c1cccs1)N2,-0.68
C(=C1CCC=C1N1CCOCC1)c1nc2ccccc2[nH]1,3.16
CC1=C(C(=O)Nc2ccccn2)C(c2ccc(Br)cc2)NC(=S)N1 (centres undefined),-0.2
CCOC(=O)c1ccc(NC(=O)CSc2nc3c(c(=O)n2C)SC(C)C3)cc1 (centres undefined),-0.86
CN1CCc2c(sc3c2C(=O)NC(c2cccc(OCc4ccccc4)c2)N3)C1 (centres undefined),2.5
O=C(O)c1ccc(N2C(=O)C3CCCCC3C2=O)cc1 (centres undefined),0.39
CCOc1ccc(C2C(C(=O)OC(C)C)=C(C)NC3=C2C(=O)C(C(=O)OC)C(C)C3)cc1 (centres undefined),0.41

# More compounds follow.
SMILES,Measles inh
N#Cc1c(SCC(N)=O)nc2c(c1-c1cccnc1)CCC2,1.25
CCOC(=O)C(=O)N1c2ccccc2C(C)(c2ccccc2)CC1(C)C (centres undefined),2.6
CC(C)C1N=C2c3ccccc3N=C(SCc3ccccc3F)N2C1=O (centres undefined),-0.23
CC1=CC(C)(C)N(C(=O)NC2CCCCC2)c2ccc(C)cc21,-0.38
CSc1nsc(SC)c1C#N,0.6
CC(C)c1ccc2oc(-c3ccc(NC(=O)c4ccccc4Cl)cc3)nc2c1,-0.04
CC1=C(C(=O)OCCc2ccccc2)C(c2ccccc2OC(C)C)CC(=O)N1 (centres undefined),-0.34
O=C1NC(c2cccc(F)c2)Nc2sc3c(c21)CCCC3 (centres undefined),1.38
O=[N+]([O-])c1ccc(NCCCNS(=O)(=O)c2ccc(Cl)cc2)cc1,1.3
O=c1c2cc3c(cc2[nH]c(=S)n1C1CCCC1)OCO3,2.26
CCOC(=O)c1ccc(CN(Cc2ccc(F)cc2)S(=O)(=O)c2ccc(Cl)cc2)cc1,0.2
CC1=NN(C(=O)C2c3ccccc3Oc3ccccc32)C(O)(C(F)F)C1 (centres undefined),-0.62
O=[N+]([O-])c1ccccc1S(=O)(=O)N1CCN(Cc2ccccn2)CC1,-0.94
COc1ccc(N=c2oc3c(C)ncc(COC(C)=O)c3cc2C(=O)Nc2cccc(C(F)(F)F)c2)c(OC)c1,-0.2
Cn1c(=O)nc2n(-c3cccc(C(F)(F)F)c3)c3ccccc3cc-2c1=O,-0.07

# Continuation:
SMILES,Measles inh
Cc1nnc2n1N=C(c1ccc([N+](=O)[O-])cc1)CS2,0.73
CC1CCC(NC(=O)c2ccc(CNS(=O)(=O)c3ccc(F)cc3)cc2)CC1 (centres undefined),2.04
CC(=O)C1C(c2ccc(C)cc2)NC(=O)NC1(O)C(F)(F)F (centres undefined),-0.08
O=C(C1CCC(CNS(=O)(=O)c2ccccc2)CC1)N1CCOCC1 (centres undefined),2.31
COC(=O)c1c(NC(=O)CSc2ncnc3sc4c(c23)CCCC4)sc2c1CCC2,-0.26
O=C(Cc1csc(Nc2nc(=S)[nH]c3ccccc23)n1)NCc1cccc(Cl)c1,1.82
O=C(CSc1nc2ccccc2c(=O)n1Cc1cccs1)NC1CCCCC1,-0.71
CN(CC(=O)NCCc1ccc(Cl)cc1)S(=O)(=O)c1cccs1,-0.28
CCN(c1cccc(C)c1)S(=O)(=O)c1ccc2[nH]cc(C(=O)NCCC(C)C)c(=O)c2c1,-0.63
Cc1ccc(C)c(S(=O)(=O)Nc2ccc3oc(=O)sc3c2)c1,-0.77
COc1ccc(OCC(=O)Nc2cccc(-c3nc4ccccc4s3)c2)cc1,-0.87
O=C(Nc1cc(C(F)(F)F)ccc1N1CCOCC1)c1ccc(Cl)c([N+](=O)[O-])c1,-0.45
N#Cc1c(N)nc(SCC(=O)c2ccc([N+](=O)[O-])cc2)c(C#N)c1-c1ccccc1,0.58
O=C(NCc1ccccc1)c1c(Cl)nsc1Cl,0.25
O=C(O)CC1OC(=O)c2cc3c(cc21)C(=O)OC3CC(=O)O (centres undefined),-0.04

# A different layout for some results above:
Measles inh,compound
0.6,CSc1nsc(SC)c1C#N
-0.04,CC(C)c1ccc2oc(-c3ccc(NC(=O)c4ccccc4Cl)cc3)nc2c1
-0.34,CC1=C(C(=O)OCCc2ccccc2)C(c2ccccc2OC(C)C)CC(=O)N1 (centres undefined)
1.38,O=C1NC(c2cccc(F)c2)Nc2sc3c(c21)CCCC3 (centres undefined)
1.3,O=[N+]([O-])c1ccc(NCCCNS(=O)(=O)c2ccc(Cl)cc2)cc1
2.26,O=c1c2cc3c(cc2[nH]c(=S)n1C1CCCC1)OCO3
0.2,CCOC(=O)c1ccc(CN(Cc2ccc(F)cc2)S(=O)(=O)c2ccc(Cl)cc2)cc1

# Following part.
SMILES,Measles inh
CCS(=O)(=O)N1CCCC(C(=O)NCCN2CCCCC2C)C1 (centres undefined),-1.08
CCC1=NN(C(=O)c2ccc(Cl)cc2)C(O)(C(F)(F)F)C1 (centres undefined),-1.17
O=C(Cn1nc(-c2ccc(Cl)cc2)ccc1=O)N1CCOCC1,0.54
CC1CCCCC1NC(=O)CSc1nnc(COc2ccc(Cl)cc2)o1 (centres undefined),-2.45
NS(=O)(=O)c1ccc(CCNc2ncnc3c2c(-c2ccccc2)cn3-c2cccc(Cl)c2)cc1,-0.12
Cc1nc(N2CCCCC2)c2c(C)c(C(=O)Nc3ccc(Br)cc3C)sc2n1,2.01
CCc1ccccc1NC(=O)c1oc(=O)c2ccccc2c1-c1ccc(C)cc1,1.89
Cc1ccc(NC(=O)C2CC(=O)N=C(N)S2)cc1 (centres undefined),-0.1
CSc1ccc(CN2CCC(N3CCN(CCO)CC3)CC2)cc1,1.65
Nc1cc(=O)[nH]c(SCCOc2ccccc2)n1,-0.39
CCOC(=O)c1c[nH]c2ccc(C(C)C)cc2c1=O,0.58
CCN(C=Nc1sc2c(c1C#N)CC(C)(C)NC2(C)C)CC,0.69
O=C(O)c1ccc2c(c1)C(=O)N(c1ccc(Sc3ccc([N+](=O)[O-])cc3)cc1)C2=O,-0.07
O=C(CCc1nc(-c2cccs2)no1)Nc1cnc2ccccc2c1,-0.9
O=C(CCS(=O)(=O)c1cccc2nonc12)N1CCCc2ccccc21,-0.44

# (next part)
SMILES,Measles inh
CC1CC(C)CN(C(=O)c2ccc3c(c2)ncn3C2CCCC2)C1 (centres undefined),-0.65
CCOc1ccc2nc(Nc3nc(C)c(CC)c(=O)[nH]3)nc(C)c2c1,-0.82
O=C(NCc1ccccn1)c1cc(-c2ccncc2)nc2ccccc12,0.9
CCC(=O)N1CCc2cc(Br)cc(S(=O)(=O)CCC(=O)N3CCN(c4ccc(F)cc4)CC3)c21,-0.22
O=C(O)c1ccc2c(c1)C(=O)N(c1cc(C(=O)O)ccc1Br)C2=O,-1.22
O=C(Nc1ccc2c(c1)OCCO2)c1ccc(NC(=O)C2CCCO2)cc1 (centres undefined),-1.36
CN(CCOC(=O)c1ccc2c(c1)OCCO2)Cc1ccccc1,-0.5
COc1ccc(C(=O)CSc2nc3ccccc3[nH]2)c(OC)c1,-0.49
COC(=O)c1sc2nc(C(F)(F)F)cc(C)c2c1N,0.11
O=C(Nc1nc(-c2ccc([N+](=O)[O-])cc2)cs1)c1cccnc1Cl,0.92
CC(C)c1ccc(NC(=O)CN(c2cc(C(F)(F)F)ccc2Cl)S(C)(=O)=O)cc1,-0.75
CCN(C(=O)c1cc2cc3ccc(OC)cc3nc2o1)c1cc(C)ccc1C,-1.93
O=C(CSc1nc2ccccc2o1)c1cccc([N+](=O)[O-])c1,-1.11
COc1ccccc1NC(=O)c1ccc(SCC(=O)NC2CCCCC2)c([N+](=O)[O-])c1,0.37
COc1ccc(-n2nc3c(c2NC(=O)c2cccc(C(F)(F)F)c2)CSC3)cc1,0.92

# Later entries
SMILES,Measles inh
CC(=O)Nc1ccc(-c2nnc(-c3ccccc3)c(-c3ccccc3)n2)cc1,-0.53
N#Cc1c(N=Cc2ccc(-c3ccc([N+](=O)[O-])cc3)o2)sc2c1CCC2,0.7
COC(=O)c1cc2cc(OC)ccc2oc1=O,-0.65
Cc1cc(Br)ccc1NC(=O)C1CCN(S(=O)(=O)c2c(C)n[nH]c2C)CC1,-1.4
Cc1cc(C)nc(SCC(=O)c2ccc(F)cc2)n1,-1.2
Fc1ccc(-c2cc(C(F)(F)F)nc(NCc3ccco3)n2)cc1,1.75
COc1ccccc1N1C(=O)C2C(c3ccccc3C)OC3(C(=O)c4ccccc4C3=O)C2C1=O (centres undefined),0.02
O=[N+]([O-])c1cc(Cl)cc(C=Nc2ccc3oc(-c4cccc(I)c4)nc3c2)c1O,0.38
NC(=O)c1ccccc1NC(=O)c1ccccc1I,-0.07
O=C1C2C3C=CC(C4CC34)C2C(=O)N1c1cc(C(F)(F)F)ccc1Cl (centres undefined),0.9
COc1ccc(CNC(=O)Cc2c(C(=O)O)[nH]c3ccccc23)c(OC)c1,-2.78
CCOc1ccc(C(=O)Nc2nccs2)cc1[N+](=O)[O-],-0.56
COC(=O)c1ccc(Nc2ncnc3c2cnn3-c2ccc(OC)cc2)cc1,-0.76
CCCc1ccc(Oc2c(-c3ccc(OCC)cc3O)n[nH]c2C)cc1,-1.47
Nc1cc(OC(=O)c2ccccc2Cl)nn1S(=O)(=O)c1ccc(Cl)cc1,-1.22
CCOC(=O)c1c(N)sc(C(=O)Nc2cc(C)ccc2C)c1C,-0.12

# Part of the list above in order of number of heavy atoms, lowest first:
SMILES,Measles inh
Nc1cc(=O)[nH]c(SCCOc2ccccc2)n1,-0.39
CCN(CC)CCn1c(=S)[nH]c2cc(C(=O)OC)ccc2c1=O,0.71
CCOc1ccc2nc(Nc3nc(C)c(CC)c(=O)[nH]3)nc(C)c2c1,-0.82
